# RanGTP-Impb inh – inhibitors of RanGTP-importin-beta interaction, primary screen, biochemical, FRET, CFP-Ran, YFP-importin-beta, homogeneous; cell-free CFP-Ran/YFP-importin-beta FRET ratio; inhibition, % (no concentration beside the values); hit rate 1.1% among 300,000; AID 2216;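 active = most replicates above 15%; inconclusive = exactly half above 15%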;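 note: 0% = DMSO wells and 100% = Ran loaded with GDP instead of GTP; wells of about 40 µL received 100 nL stock; the first replicate is given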
# LANA-H2B inh – blocks KSHV LANA binding to histone H2A/H2B; Q9QR71; cell-free LANA-H2A/H2B peptide, fluorescence polarization; inhibition, % (no concentration beside the values); hit rate 0.6% among 320,000; in the data active = inhibition mostly above about 10%, no sharp cut-off; inactive = mostly below about 6.7%;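 note: stock transfer was 7.5 nL into about 10 µL; 0% = median of vehicle wells and 100% = median of positive control wells; one replicate is shown; the record names a cut of 25% in any replicate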
# Vif A3G – inhibitors of Vif binding to APOBEC3G peptide, primary screen, biochemical, TR-FRET, GST-Vif 1-94, biotin-A3G peptide, dose response retest (AID 1117319); one-dose inhibition, %; IC50 in µM for titrated hits; hit rate 0.57% among 260,000; TR-FRET GST-Vif / biotin-A3G peptide binding; higher % means a stronger effect; test concentration not given here; strong numbers were not always called active;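 active = above the screen mean plus three standard deviations and confirmed in dose response; inconclusive = results disagree or hit not tested in dose response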;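 note: Vif residues 1-94 fused to GST binding biotinylated APOBEC3G peptide 110-148; 0% = full assay without inhibitor and 100% = GST in place of GST-Vif; retest series ran down from 100 µM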
# Calb FLC – affects C. albicans growth with fluconazole | growth inhibition, % (concentration not given with the values) | hit rate 0.57% among 300,000 | C. albicans CaCi-2 (fluconazole-resistant clinical isolate) + fluconazole, Alamar Blue growth, 48 h;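 active = most replicates above 75%; inconclusive = exactly half above 75%; inactive = most below 75%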;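 note: all wells also contain fluconazole at 8 µg/ml as a sub-toxic cotreatment; 0% = median of DMSO wells and 100% = median of geldanamycin control wells; wells of about 8 µL received 7.5 nL stock; the first replicate is given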
# Beta2AR agonist – agonists of human beta-2 adrenergic receptor inducing internalization; P07550; Am2.2-beta2AR cells, FAP receptor internalization, flow cytometry; reference of the scale not given here; response, % (concentration not given with the values); hit rate 0.43% among 340,000;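 active = response above a set limit, near 3 SD of response in nonfluorescent compounds, cut at about 42% in these data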;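 note: stock transfer was 100 nL into about 11 µL; a reference agonist was the positive control; negative values mostly stem from fluorescent compounds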
# Target sequence (P07550 whole entry, looked up): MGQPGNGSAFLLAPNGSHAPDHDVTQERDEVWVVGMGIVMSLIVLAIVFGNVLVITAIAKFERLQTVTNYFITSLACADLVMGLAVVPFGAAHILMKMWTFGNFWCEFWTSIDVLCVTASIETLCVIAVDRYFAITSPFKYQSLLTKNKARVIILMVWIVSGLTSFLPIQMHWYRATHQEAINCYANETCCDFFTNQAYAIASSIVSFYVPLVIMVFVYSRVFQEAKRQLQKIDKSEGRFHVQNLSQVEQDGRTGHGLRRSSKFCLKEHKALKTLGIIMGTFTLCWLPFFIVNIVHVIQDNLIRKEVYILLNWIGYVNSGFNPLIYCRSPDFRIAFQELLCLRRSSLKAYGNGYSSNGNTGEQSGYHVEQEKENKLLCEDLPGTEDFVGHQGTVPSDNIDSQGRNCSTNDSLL
# ALR inh – human ALR oxidase inhibition via reduced H2O2 | P55789 | purified ALR, DTT oxidation, H2O2 HRP-luminol luminescence | inhibition, % (concentration not given with the values) | hit rate 3.8% among 290,000;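 active = mean and each replicate at 75% or more; inconclusive = only one of the two met; inactive = neither met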;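 note: stock transfer was 7.5 nL into about 7.5 µL; 0% = neutral wells and 100% = wells with inactivated enzyme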
# Target sequence (P55789 whole entry, looked up): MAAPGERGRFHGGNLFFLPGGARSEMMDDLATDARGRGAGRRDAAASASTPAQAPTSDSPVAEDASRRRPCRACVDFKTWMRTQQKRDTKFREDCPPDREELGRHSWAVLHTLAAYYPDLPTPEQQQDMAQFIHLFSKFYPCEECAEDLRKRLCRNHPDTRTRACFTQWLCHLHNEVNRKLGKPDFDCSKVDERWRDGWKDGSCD
# HNF4A DNA FP – change in binding of human HNF4 alpha to DNA | HNF4a-FITC DNA binding, fluorescence polarization, 1 h | activity change, % at 10 µM | AID 1224865 | hit rate 0.3% among 360,000 | P41235; in the data active = activity change above about 30%, passing the limit was not always enough;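 note: controls were the assay level and a saturating level of protein; the project sought stronger binding though the title names inhibitors; some compounds called inactive have numbers as strong as hits; positive values seem to mean higher polarization but the record does not say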
# Target sequence (P41235 whole entry, looked up): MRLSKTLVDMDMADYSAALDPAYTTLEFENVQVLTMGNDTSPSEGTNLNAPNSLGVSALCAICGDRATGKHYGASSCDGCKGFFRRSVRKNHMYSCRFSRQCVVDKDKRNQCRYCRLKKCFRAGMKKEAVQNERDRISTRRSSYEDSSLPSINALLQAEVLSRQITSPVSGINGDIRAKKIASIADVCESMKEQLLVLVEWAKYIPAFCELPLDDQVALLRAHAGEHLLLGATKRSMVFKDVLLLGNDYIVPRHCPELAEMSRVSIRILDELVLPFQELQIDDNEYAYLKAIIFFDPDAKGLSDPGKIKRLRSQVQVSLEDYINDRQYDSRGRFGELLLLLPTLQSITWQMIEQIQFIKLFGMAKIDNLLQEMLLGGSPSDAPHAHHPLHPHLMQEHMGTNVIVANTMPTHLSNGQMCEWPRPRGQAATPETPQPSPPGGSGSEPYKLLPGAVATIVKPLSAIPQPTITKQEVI
# * hit, by the source's call; ? = inconclusive; · = no result given.
SMILES,RanGTP-Impb inh,LANA-H2B inh,Vif A3G,Calb FLC,Beta2AR agonist,ALR inh,HNF4A DNA FP
Cc1cc(SCNC(=O)c2ccccc2)nc(C(C)C)n1,?,-4.1,-8%,-3,4,98*,1.1
Cc1cc(C)nc(N/N=C/c2cn[nH]c2-c2ccccc2)n1,0.3,-3.4,2%,5,-3,4,6.0
O=c1oc2ccccc2c2c1cnc1ccccc12,·,·,-4%,·,-2,·,-1.5
Cc1cc(SCC(=O)N(C)CC(=O)Nc2ccc(F)cc2)nc2ccccc12,0.6,-0.1,·,13,2,-8,-1.9
COc1ccc(Oc2cn[nH]c2-c2ccc(OCC(=O)NN)cc2O)cc1,-1.2,-2.2,6%,-2,4,·,-0.8
Cc1nn(Cc2ccccc2)c(Cl)c1/C=C/C(=O)OC(C)C(=O)N1CCCC1 (stereo not given),7.8,3.5,-12%,-4,0,-5,2.3
O=C(NNC(=O)C1CCN(S(=O)(=O)c2c(Cl)cccc2Cl)CC1)c1ccccc1O,-4.4,-11,·,-5,7,2,-0.5
Cc1cc(C)n2ncc(-c3cccc(Br)c3)c2n1,3.7,-1.7,-5%,-15,14,-6,4.8
Cc1ccc(NC(=O)CCNS(=O)(=O)c2ccccc2)c(C(=O)c2ccccc2)c1,4.3,3.6,-1%,-5,5,-26,0.9
O=C(N/N=C/c1cccs1)c1cccc(NC(=O)c2ccccc2Cl)c1,-4.4,-1.7,-7%,-34,-2,-10,-0.3
O=C(CNC(=O)c1ccncc1)Nc1ccc(F)c(F)c1,-1.1,0.9,-6%,-1,-2,-16,5.0
CCOC(=O)/C=C/c1ccc2c(c1)S(=O)(=O)N(c1cccc(OC)c1)[C@H]2CC(=O)OCC,1.5,-4.3,·,8,9,-11,2.5
O=C(COC(=O)c1cc(Br)ccc1Cl)NC(=O)NCc1ccccc1,?,-1.4,4%,-2,-1,-23,-6.6
CCCN(C(=O)Cc1coc2cc(C)c(C)cc12)c1c(N)n(Cc2ccccc2)c(=O)[nH]c1=O,2.4,1.2,2%,6,-14,-9,1.1
CCOc1ccc(CCNC(=O)CSc2cc(=O)n(C)c3ccc(Cl)cc23)cc1OCC,-11,·,·,8,-27,·,-1.3
COC(=O)/C(C#N)=C/c1c(N2CCN(Cc3ccc4c(c3)OCO4)CC2)nc2c(C)cccn2c1=O,-30,-4.5,2%,-4,-5,·,1.1
O=C(CNc1ccccc1-c1ccccc1)NCc1ccccc1,-4.7,-2.7,-6%,0,-1,17,-1.0
CCc1nn(C(CC)C(=O)NCCc2ccc(OC)cc2OC)c(=O)c2cc3occc3n12 (stereo not given),?,-2.5,0%,-8,7,-4,4.4
CCOC(=O)N1CCN(C2CCCN(C(=O)c3ccccc3N(C)C)C2)CC1 (stereo not given),2.2,-1.5,10%,-5,7,-11,1.9
COc1nsnc1N1CCOCC1,-2.4,-2.6,-6%,17,2,-3,2.4
COc1ccccc1C(=O)NC(=O)Nc1cccc(Cl)c1,-0.1,-1.5,-5%,-6,-10,-14,-0.3
O=C(NCC1CCN(Cc2cccc(Cl)c2)CC1)C1CCCN(c2ncnc3c2nc2n3CCCCC2)C1 (stereo not given),-0.4,2.5,2%,4,7,-1,-1.0
Cc1cc(C)n(CC(=O)NNC(=O)c2cncc(Br)c2)n1,·,-3.7,8%,·,5,-19,2.9
Cc1ccccc1N=C1N=C(N)c2ccccc21,-2.2,·,-11%,0,0,·,3.8
COc1cccc(COC(=O)Nc2ccccc2F)c1,1.9,2.2,·,-4,-2,0,0.4
O=S(=O)(NC1CC(NS(=O)(=O)OCC(Cl)(Cl)Cl)C2CCCCC12)OCC(Cl)(Cl)Cl (stereo not given),0.2,-1.9,·,-11,4,-4,-0.2
COc1ccc(NC(=O)C2=CC(c3ccc(C)cc3)=NS(=O)(=O)N2C)cc1,1.0,0.1,·,3,26,-2,-4.2
Cc1cc(C(=O)C(C)OC(=O)c2ccc(NC(=O)CC#N)cc2)c(C)n1-c1ccc(OC(F)F)cc1 (stereo not given),·,1.7,-3%,·,2,-5,8.5
Cc1cc(C)cc(N(C(=O)Cc2cccs2)C(C(=O)NC2CCCCC2)c2ccccn2)c1 (stereo not given),1.6,0.3,7%,-12,-4,-1,2.2
CCC(CC)c1nnc(NC(=O)C2=NNC(=O)CC2)s1,5.4,-0.5,0%,-6,-3,-1,0.1
COc1ccc(C(=O)NCCOc2cccc(Oc3ccccc3)c2)cc1OC,·,-0.5,-8%,·,-19,·,-1.3
CC(C)Cn1c(N)c(C(=O)NCCN2CCOCC2)c2nc3ccccc3nc21,94*,1.0,8%,-11,-13,-20,-1.9
CN(C)c1nc(N)nc(Cn2ccnc2)n1,0.9,1.8,23%,-15,-13,0,3.9
Cc1ccc(NC(=O)CCC(=O)N/N=C/c2coc3ccccc3c2=O)cc1,?,4.5,-1%,-11,6,-1,0.8
CCC1CCCCN1CCCNC(=O)Cn1cc2c(n1)-c1c(oc(C(=O)N3CCCC3)c1C)CC2 (stereo not given),3.0,-4.2,·,15,-9,-43,1.2
O=C(NCC1CCCO1)c1cnn2c(C(F)F)cc(C3CC3)nc12 (stereo not given),2.1,-23,·,6,5,5,7.0
COc1cc(/C=N/NC(=O)c2cccnc2)ccc1OC(=O)c1ccc2c(c1)OCO2,3.4,2.5,4%,-12,3,-7,-2.8
COc1cc2c(cc1OC)C1=C(C#N)CN(CC(=O)O)CN1CC2,-1.5,-2.1,-2%,-2,18,-2,3.5
O=C(Cc1ccccc1)N1N=C(c2ccncc2)CC1(O)C(F)(F)F (stereo not given),-0.2,2.0,-1%,-7,-10,-5,-4.5
COc1ccc(OCCCC(=O)OC(C)C(=O)Nc2ccc(C)cc2)cc1 (stereo not given),2.3,3.6,4%,-13,0,-3,-4.6
CCCCN(C(=O)Cc1cccs1)c1nnc(-c2cccnc2)s1,·,0.8,4%,·,38,13,0.7
NC(N)=Nc1nc2ccc([N+](=O)[O-])cc2[nH]1,1.6,-10,10%,0,-6,-6,1.1
COc1ccc(C(C)=O)cc1CSc1nnc(-c2ccccc2O)n1-c1ccccc1,-4.0,6.7,0%,-2,1,4,4.8
Cc1ccc(C(=O)CC2(O)C(=O)N(CCc3ccccc3)c3ccc(Br)cc32)o1 (stereo not given),0.5,-8.5,16%,-12,1,-1,2.0
O=C(NCc1n[nH]c(=S)n1-c1ccc(F)cc1)c1ccco1,2.1,-6.9,12%,12,-2,?,-2.0
Cc1ccc(NS(=O)(=O)c2ccc(OCC(=O)NCc3ccccn3)cc2)cc1,4.2,0.4,1%,1,2,-1,-1.4
COC(=O)CCCC1=CC2=CC(=O)C(C)(OC(=O)c3cccs3)C(=O)C2=CN1CCCCO (stereo not given),2.8,0.1,·,13,-5,·,-4.5
COc1cc(CO)ccc1OCC(=O)N1CCc2ccccc21,4.8,-0.7,·,8,-3,-12,-3.3
CCCOC(=O)c1cc2ccccc2oc1=O,2.7,3.8,-3%,3,-1,2,4.2
C#CCOC(=O)c1ccccc1C(=O)n1nnc2ccccc21,0.3,1.2,-8%,5,15,97*,-0.1
# Remaining list, next part
SMILES,RanGTP-Impb inh,LANA-H2B inh,Vif A3G,Calb FLC,Beta2AR agonist,ALR inh,HNF4A DNA FP
CC(=O)Nc1ccc(Nc2c([N+](=O)[O-])c(=O)n(-c3ccccc3)c3ccccc23)cc1,8.5,2.4,14%,-37,1,-3,15
CCCN1CNC(=S)N(c2cccc(C)c2C)C1,?,0.2,-1%,0,-1,-26,1.4
CN(C[C@H](Cc1ccccc1)N(CCN(CCc1ccccc1)N=O)N=O)N=O,-3.2,-1.3,-7%,-3,-3,-3,-1.7
COc1ccc(C(=O)Nc2c(N)nc(SCC(=O)N3CCC(C)CC3)[nH]c2=O)cc1OC,6.9,5.3,3%,-2,-6,0,2.1
O=C(CC1SC2=NCCN2C1=O)Nc1ccc(Cl)cc1 (stereo not given),-1.2,4.7,0%,-5,19,-3,-0.3
CCOC(=O)N1CCC2(O)CCCCC2C1c1ccc(F)cc1 (stereo not given),0.9,-3.4,-5%,-4,-1,-19,0.8
CCOc1ccccc1NC(=O)CCc1nnc2ccc(N3CCC4(CC3)OCCO4)nn12,6.9,4.5,-13%,1,0,-3,-4.1
COc1ccc(OC)c(-n2c(=S)[nH]c3c(sc(=S)n3-c3ccccc3)c2=O)c1,-2.2,0.8,20%,6,-5,·,2.6
Cc1c(C#N)c(=O)oc2ccc3ccccc3c12,0.5,0.7,13%,4,-2,-58,-1.1
Cc1ccccc1NC(=O)C1CC(=O)N(c2ccccc2F)C1 (stereo not given),-2.4,-2.1,3%,-4,-5,-4,1.7
COC(=O)CCC(=O)N1CCCC(N2CCN(c3ccc(OC)cc3)CC2)C1 (stereo not given),3.4,-6.3,·,0,3,·,7.8
Cc1cccc(NC(=O)C2CCCN(S(=O)(=O)c3ccc(-n4cnnn4)cc3)C2)c1 (stereo not given),-2.3,1.2,-6%,-1,-11,-10,1.9
COc1ccc(NC(=O)CN2CCN(c3ccc(Cl)cc3)CC2)c(OC)c1,-0.9,-1.0,2%,-4,5,0,-2.2
COc1ccc(CCN(C)Cc2ccc(OC)c(OCc3ccccc3)c2)cc1OC,-3.0,4.3,-1%,6,4,-5,-2.4
Cc1[nH]n2c(=O)cc(C(C)(C)C)nc2c1-c1ccccc1,?,-0.1,?,-2,14,56,0.6
CCn1c(COC(=O)CNC(=O)c2cc(OC)c(OC)c(OC)c2)nc2cc(S(=O)(=O)N(C)C)ccc21,2.9,-2.7,-5%,-2,0,·,5.0
CC(=O)c1cn(CC(=O)NCc2ccc3c(c2)OCO3)c2ccccc12,3.9,1.8,-10%,-8,4,-4,16
CN(C)c1ccc(C=NCCc2ccc(S(N)(=O)=O)cc2)cc1,-1.0,2.3,·,-6,1,3,3.8
NC(=O)NC(=O)COC(=O)c1ccc2c(c1)C(=O)N(Cc1ccccc1)C2=O,1.9,3.6,19%,-2,6,-3,-3.8
CCC(=O)Nc1ccc(C(=O)OCc2ccccc2)cc1,2.2,·,-5%,5,2,·,4.0
N#CCCn1cc(C(=O)Nc2ccc([N+](=O)[O-])cc2)c(-c2cccs2)n1,-4.7,-10,-7%,-2,0,-8,3.5
O=C(Nc1ccc(NS(=O)(=O)c2ccccc2)cc1)c1ccccc1,2.5,-1.9,22%,-7,-7,·,-3.3
c1ccc(CN(CCN2CCOCC2)Cc2ccccc2)cc1,·,·,-7%,·,-2,·,-2.6
O=C(N/N=C/c1ccc[nH]1)c1cc(-c2cccs2)nc2ccccc12,-0.7,0.0,-11%,11,-6,6,-1.9
Cc1cc([N+](=O)[O-])cc(C)c1OCC(=O)N/N=C/c1ccc(OC(=O)c2ccccc2Br)cc1,0.4,-2.3,-2%,-1,1,-1,0.4
CCCCOc1ccc(NC(=O)CN2CCN(CC)CC2)cc1,2.4,1.8,·,-2,-8,-7,2.7
CCOC(=O)Cc1csc(NC(=O)CCN2C(=O)c3cccc([N+](=O)[O-])c3C2=O)n1,-3.2,-5.3,·,8,-2,·,6.5
Cn1c(SCC(=O)N2CCOCC2)nc2sc3c(c2c1=O)CCCC3,-2.0,0.8,2%,18,-5,-1,2.4
COc1cc(C(=O)N2C(=O)CCC2=O)cc(OC)c1OC,3.7,5.7,0%,-4,-13,·,-0.9

# Rewritten with two lines to a compound: part of the list above
# Order of values: RanGTP-Impb inh | LANA-H2B inh | Vif A3G | Calb FLC | Beta2AR agonist | ALR inh | HNF4A DNA FP
Cc1cc([N+](=O)[O-])cc(C)c1OCC(=O)N/N=C/c1ccc(OC(=O)c2ccccc2Br)cc1
 : 0.4 | -2.3 | -2% | -1 | 1 | -1 | 0.4
CCOC(=O)Cc1csc(NC(=O)CCN2C(=O)c3cccc([N+](=O)[O-])c3C2=O)n1
 : -3.2 | -5.3 | · | 8 | -2 | · | 6.5
COc1cc(C(=O)N2C(=O)CCC2=O)cc(OC)c1OC
 : 3.7 | 5.7 | 0% | -4 | -13 | · | -0.9
